Sfp PPTase inh – Sfp phosphopantetheinyl transferase inhibition; Potency, µM, without a hit: max response, negative = inhibition, hits mostly inhibitors; Biochemical Sfp PPTase activity, qHTS; hit rate 3.5% among 310,000; Q9F4F7; active = well fitted inhibition curve with a large enough effect; inconclusive = small, poorly fitted or top-dose-only effect, or another doubt; inactive = no such curve, though single readings can be large or run the other way;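 also: the enzyme is Sfp with the accession as filed and its product quenches rhodamine fluorescence; potency is read from the fitted curve at half-maximal effect; 0% = enzyme reaction without inhibitor and -100% = no enzyme wells; top concentration of the series not given in the record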
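After 15 min at room temperature with compound, 15 nM Sfp received 5 uM rhodamine-CoA plus 12.5 uM BHQ-2-ybbR (50 mM Hepes pH 7.6, 10 mM MgCl2). Rate came from the fluorescence difference over 30 min, ex 525/em 598 nm.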
ClpP mod – qHTS Assay for Activators of ClpP | ATP-dependent Clp protease proteolytic subunit (Bacillus subtilis (strain 168)), P80244 | purified B. subtilis ClpP, FRET peptide cleavage, 20 min | Potency, µM (highest dose often 57.5 µM), without a hit: at the top dose activity change, negative = active | hit rate 1.9% among 340,000 | AID 651965, 2013; active = well fitted falling curve with a large enough effect; inconclusive = small, poorly fitted or top-dose-only effect; inactive = no such curve, though single readings can be large or run the other way; also: potency is read from the fitted curve at half-maximal effect; the source files actives as falling curves though it sought activators and does not explain the sign; nearly all actives have a fitted effect of over 65% in size; many hits overshoot -100%
Target sequence (P80244 whole entry, looked up): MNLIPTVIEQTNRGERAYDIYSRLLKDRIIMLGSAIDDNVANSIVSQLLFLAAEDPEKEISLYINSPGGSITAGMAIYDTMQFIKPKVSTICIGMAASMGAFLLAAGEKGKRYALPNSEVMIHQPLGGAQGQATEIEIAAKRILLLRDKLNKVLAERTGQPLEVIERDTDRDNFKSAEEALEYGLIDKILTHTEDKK
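ClpP 10 microg/mL final, pH 8 Tris/KCl buffer with BSA, glycerol, Tween-20; compound pinned in; FRET-FV substrate; RT 20 min; Ex320/Em430; ΔFRET vs ADEP 5.8 microM, DMSO, no enzyme.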
gsp antagonist – antagonists of gsp mutant (McCune-Albright syndrome); hit rate 0.4% among 340,000; Potency, µM (top dose mostly 76.9 µM), without a hit: at the top dose activity change, negative = inhibition, actives largely listed as inhibitors; AID 624288; gsp-mutant cells, cAMP HTRF, 30 min; control for the full effect not named in the record; active = falling curve of any shape with a large fitted effect; inconclusive = falling curve, mostly with a smaller effect; inactive = flat or rising curve; cell line not stated here;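 also: intracellular cAMP measured with PDE inhibitor Ro 20-1724 present during compound exposure; potency is read from the fitted curve at half-maximal effect; % is scaled to controls: 0 for no effect and ±100 for the full control effect; nearly all actives have a fitted effect of over 65% in size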
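G418-selected cells were plated in DMEM/10% FBS for 16-24 h at 37C, then treated with compounds plus the PDE inhibitor […] (300 uM solution added) for 30 min at 37C. Intracellular cAMP was measured by HTRF after 30 min lysis at room temperature.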
PINK1 expr mod – PINK1 expression modulation; Potency, µM (doses to about 76.6 µM), for the others: at the top dose activation (PINK1 increase), most hits filed as activators; PINK1 immunofluorescence, high-content cytometry, 24 h; AID 624263; hit rate 0.2% among 410,000; active = well fitted activation curve with a large enough effect; inconclusive = small, poorly fitted or top-dose-only effect; inactive = flat fitted curve, though single readings scatter; cell line not stated here;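 also: potency is read from the fitted curve at half-maximal effect; % of control where 0% means no effect; nearly all actives have a fitted effect of over 65% in size; a mitochondrial uncoupler was the plate control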
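Compound titrations (5 concentrations, 24 h) on a stable cell line; DMSO and CCCP controls. Endpoint: fixed-cell PINK1 immunofluorescence with mitochondrial, cell and nuclear markers, scanned by microplate cytometer.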
Menin MLL FP FL – menin-MLL binding inhibition, fluorescein peptide | FP activity change, % at 61.4 µM | 290,000 tested, under 10 active | Fluorescence polarization, fluorescein-MLL peptide displacement from menin | AID 1766; inconclusive = falling polarisation curve, or a change in total fluorescence; inactive = total fluorescence flat and polarisation flat or rising; no compound was filed as active; the % refers to the polarisation; negative = inhibition;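 also: % of control where 0% means no effect; inhibitors lower the polarisation; unlabelled MLL peptide was the positive control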
gsp agonist – agonists of gsp mutant (McCune-Albright syndrome). gsp mutant cells, cAMP HTRF, 30 min; control for the full effect not named in the record. Potency, µM (titrated, usually from 76.9 µM), for inactives: top-dose activation (cAMP increase), usual class: activators. hit rate 0.13% among 340,000. AID 624287; active = well fitted activation curve with a large enough effect; inconclusive = small, poorly fitted or top-dose-only effect, or another doubt; inactive = no such curve, though single readings can be large or run the other way; cell line not stated here;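 also: phosphodiesterase inhibitor Ro 20-1724 added with compounds to block cAMP breakdown; potency is read from the fitted curve at half-maximal effect; nearly all actives have a fitted effect of over 60% in size; about a fifth of the inactives were tested at one dose only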
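Cells stably selected in G418 were plated at 2000/well, grown 16-24 hr, then given compounds in DMSO with the PDE inhibitor […] (300 uM solution added) for 30 min at 37C; cAMP was read by HTRF.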
D2 agonist – activates the human D2 dopamine receptor; activation, % (test concentration not listed); P14416; DiscoveRx PathHunter D2 beta-arrestin, luminescence, 90 min; 100% = 57 uM dopamine signal; hit rate 0.084% among 360,000; AID 624465; in the data active = activation above about 40%; inconclusive = about 15% to 40%; inactive = below about 15%; also: compound concentration not given in the record; the text of the record calls up to 30% inactive
Target sequence (P14416 whole entry, looked up): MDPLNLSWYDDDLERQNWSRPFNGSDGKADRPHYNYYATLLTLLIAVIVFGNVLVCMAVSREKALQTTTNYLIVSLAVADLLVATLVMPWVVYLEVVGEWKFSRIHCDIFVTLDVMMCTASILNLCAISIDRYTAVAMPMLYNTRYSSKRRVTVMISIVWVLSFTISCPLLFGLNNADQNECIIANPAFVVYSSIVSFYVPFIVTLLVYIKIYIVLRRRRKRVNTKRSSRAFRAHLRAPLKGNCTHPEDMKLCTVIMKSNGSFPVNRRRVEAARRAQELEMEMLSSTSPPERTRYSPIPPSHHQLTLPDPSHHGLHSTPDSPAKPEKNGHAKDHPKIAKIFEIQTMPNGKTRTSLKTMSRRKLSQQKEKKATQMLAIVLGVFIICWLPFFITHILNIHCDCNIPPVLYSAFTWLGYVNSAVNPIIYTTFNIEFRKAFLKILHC
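Agonist mode: compounds alone added to overnight-plated D2 PathHunter cells for 90 min at 37 C, with 57 uM final dopamine (EC100) defining full response. Beta-arrestin recruitment detected by chemiluminescent reagent, read after 1 h at ambient temperature.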
* marks the source's active call; other numbers are inactive results; ? = inconclusive; · = no result given; & = joins results of further samples; [ ] = remark or other dose.

SMILES	Sfp PPTase inh	ClpP mod	gsp antagonist	PINK1 expr mod	Menin MLL FP FL	gsp agonist	D2 agonist
COc1ccccc1N1C(=O)NC(=O)/C(=C\c2cnn(-c3ccccc3)c2)C1=O	32µM*	·	-9%	-0.6%	-0.5	-6%	-7.4
Cc1cc(NC(=O)C(Cl)(Cl)Cl)no1	8%	-0.4%	-5%	-0.7%	-0.7	30%[15.4 µM]	3.2
CC(C)CN(CC(C)C)C(=O)C1C2c3ccccc3C(c3ccccc32)C1C(=O)O (configuration not stated)	-5%	-2.3%	-2%	0.2%	1.5	-12%	-1.6
C=CCC1(CN2CCCCCC2=O)C(=O)NC(=O)NC1=O	9%	-0.6%	-2%	-1.3%	7.4	-1%	-2.0
CCOC(=O)C(=CNc1ccc(C(O)(C(=O)OCC)C(F)(F)F)cc1C)C(=O)OCC (configuration not stated)	6%	-4.6%	1%	7.2%	2.9	?	-2.0
O=c1c2ccccc2nc(/C=C/c2ccc(F)cc2)n1-c1ccccc1O	-2%	?	-7%	1.1%	?	7%[15.4 µM]	2.1
CCOC(=O)C1(CCCc2ccccc2)CCN(C2CCCC2)CC1	2%	·	9%	2.8%	-4.2	?	-3.0
O=C1NC(=O)C(=Cc2ccc(OCCOc3ccc([N+](=O)[O-])cc3)cc2)C(=O)N1	50µM*	·	1%	0.8%	1.2	-2%	0.3
N#CC1=C(N)Oc2c(c(=O)oc3ccccc23)C1c1ccc([N+](=O)[O-])o1 (configuration not stated)	?	·	·	2.4%	?	2%[15.4 µM]	3.7
O=C(Nc1cccc(C(F)(F)F)c1)OC1CN2CCC1CC2 (configuration not stated)	11%	-0.7%	-4%	-0.3%	12	3%	-6.0
CCOc1ccc([N+](=O)[O-])cc1CNCCc1ccccc1	27%	0.6%	-9%	-0.1%	-1.0	?	1.1
CN(C)c1ccc(C=C2C(=O)NC(=S)NC2=O)cc1	·	-1.6%&1.1%	?	-1.8%&0.0%	·	-7%[15.4 µM]	-1.2
COC(=O)C1=C(c2ccccc2OCc2ccccc2)C[C@@H]2CC[C@H]1N2C(=O)NCCc1ccc(F)cc1	·	-2.8%	-18%	5.2%	·	·	0.7
O=S(=O)(c1ccc(Cl)cc1)c1ccc(Cl)cc1	·	0.0%	-12%	-0.4%	·	·	7.8
COC(=O)C1=C(c2c(C)noc2C)C[C@@H]2CC[C@H]1N2C(=O)NCc1ccco1	·	1.3%	14%	1.4%	·	-45%[inhibitor]	-0.4
CCCCn1c(O)c(C=NCCN2CCCCC2)c(=O)[nH]c1=O	13%	-7.1%	-1%	0.1%	27	-4%	-0.9
CC1=CC(O)C(O)C2(C)C1CC1OC(=O)CC3C(C)C(O)C(=O)C2C13CO (configuration not stated)	·	-0.4%	2%	-1.5%	·	3%[15.4 µM]	-1.5
CNC(C(=O)c1ccccc1)C(OC)c1cccc([N+](=O)[O-])c1 (configuration not stated)	6%	0.7%	11%	-2.1%	0.1	-20%[15.4 µM]	-6.9
Cc1c(C=C2C(=O)N(C)C(=O)N(C)C2=O)c(=O)n(-c2ccccc2)n1C	22%	1.8%	7%	2.3%	6.0	-55%[inhibitor]	-1.4
CC(C)OP(=O)(OC(C)C)C(Nc1ccccc1)c1ccccc1C(F)(F)F (configuration not stated)	37%[activator]	-0.9%	-2%	2.3%	-2.3	-35%[inhibitor]	5.1
O=C1CC(c2cccnc2)=NN1c1ccc(Cl)cc1Cl	16%	·	-9%	0.2%	4.3	-2%[15.4 µM]	-2.3
O=c1c2ccccc2nc(Cc2ccccc2)n1-c1ccccc1O	21%	·	1%	0.5%	5.9	11%[15.4 µM]	-1.3
O=c1[nH]c(CN2CC=C(c3ccccc3)CC2)nc2scc(-c3ccccc3)c12	?	-4.9%	-4%	5.1%	?	-3%	2.3
O=C(NCCCN1CCCC1)c1ccc2c(c1)N(Cc1cccc(Cl)c1)C(=O)c1ccccc1S2=O (configuration not stated)	-7%	-0.2%	0%	1.2%	2.5	1%	-1.1
O=C(N/N=C1/CN2CCC1CC2)c1cccc(O)c1	-16%	-1.5%	10%	-0.5%	0.3	0%	-3.2
C/C(=N\N1CCCCCC1)c1c(O)n(-c2ccc(Cl)cc2)c(=O)[nH]c1=O	9%	·	-13%	3.3%	3.4	-7%	-4.3
O=c1[nH]c(=S)[nH]c(O)c1C(c1ccccn1)c1c(O)[nH]c(=S)[nH]c1=O	25µM*	·	7%	0.1%	-2.4	-18%	3.5
Cc1ccc(NC(=O)CCNS(=O)(=O)c2ccc3c(c2)oc(=O)n3C)c(C)c1	23%	-1.0%	-3%	-3.2%[38.3 µM]	5.8	-25%	-1.9
O=P(NC(c1ccccc1)c1ccccc1)(Oc1ccccc1)Oc1ccccc1	7%	-3.1%	-1%	?	6.5	7%	-3.0
CCN1CCN(Cc2ccc(OC(F)(F)F)cc2)CC1	1%	-1.9%	13%	-7.6%[38.3 µM]	3.0	14%	-1.7
C/C(=N\NC(N)=S)C12CC3CC(CC(C3)C1)C2	8%	0.6%	-1%	·	2.5	-5%	2.8
N=c1c[n+](CC23CC4CC(CC(C4)C2)C3)[n-]o1	3%	-2.2%	12%	-1.5%	1.0	-47%[inhibitor]	-0.3
CCC(=Nc1ccc(OC)cc1OC)c1c(O)n(C)c(=O)n(C)c1=O	-8%	-3.1%	-14%	-0.2%	4.1	16%	4.6
CS(=O)(=O)NCc1nnc2n1-c1ccc(Cl)cc1C(c1ccccc1)=NC2	3%	-1.6%	6%	-2.6%	-2.6	-14%[15.4 µM]	1.2
COc1ccc(CN2CCN(C(=O)Cc3ccccc3)CC2)cc1OC	·	1.1%	·	-0.5%	·	-44%[inhibitor]	-3.3
O=C(CSc1nc2ccccc2c(=O)[nH]1)NCc1ccc(Cl)cc1	4%	-3.6%	21%	-1.4%	4.1	3%	-3.1
ClC(Cl)(Cl)c1ccccc1	·	-1.1%	-2%	-0.6%	·	·	-2.8
Cc1[nH]nc2ccc(-c3cncc(OC[C@@H](N)Cc4c[nH]c5ccccc45)c3)cc12	·	-8.1%	-7%	-2.0%	·	·	-1.6
Cc1cc(=O)oc2cc3c(cc12)CCCN3	-2%	4.0%	2%	-0.1%	0.7	?	0.3
c1ccc2c(c1)[nH]c1cnccc12	-14%&-5%	3.6%	-2%	-0.2%&-1.1%	-0.2&-4.5	·	1.0
O=C(COC(=O)Cc1ccccc1)NNC(=O)c1ccc([N+](=O)[O-])cc1	·	-3.5%	5%	-0.5%	·	?	4.8
COC(=O)C1=C(c2ccc(OCc3ccccc3)cc2)C[C@@H]2CC[C@H]1N2C(=O)NCc1ccc(F)cc1	·	-10%	·	2.1%	·	-9%	-8.8
O=c1cccc2n1CC1CC2CN(Cc2c(Cl)cccc2Cl)C1 (configuration not stated)	-7%	-1.3%	-16%	10%[38.3 µM]	4.5	-25%	-0.7
C[C@@H]1Cn2cnc(C(=O)Nc3ccc(CNC(=O)OC(C)(C)C)cc3)c2C(=O)N1	·	-2.1%	·	-0.4%	·	-11%	-0.8
CC(C)(C)c1ccc(S(=O)(=O)N2CC3CC(C2)c2cccc(=O)n2C3)cc1 (configuration not stated)	22%	-4.3%	-12%	-1.7%[38.3 µM]	-0.2	7%	-2.6
Fc1ccc(N2CCN(Cc3ccc4c(c3)OCO4)CC2)cc1	-16%	-1.1%	6%	1.1%[38.3 µM]	-4.4	14%	1.3
COC(=O)CC1=C(C(=O)OC)C2(C(=O)Nc3c(C)cccc32)C(C#N)=C(N)O1 (configuration not stated)	-5%	0.5%	9%	2.2%	-1.2	2%	12
CCOc1ccc(S(=O)(=O)N(C)c2ccc(OCC(=O)N3c4ccc(C)cc4C4CN(C)CCC43)cc2)cc1 (configuration not stated)	-9%	1.2%	0%	1.6%	-0.1	-1%	-2.2
COC(=O)C1=C(c2ccc(C(C)=O)cc2)C[C@@H]2CC[C@H]1N2C(=O)NCCO	·	-1.9%	-1%	0.6%	·	8%	-6.5
COc1ccc(NC(c2ccccc2)P(=O)(Oc2ccccc2)Oc2ccccc2)cc1 (configuration not stated)	5%	-2.0%	-7%	2.0%	1.5	0%	-6.3
c1cc2n(c1)-c1c(ccc3c1OCO3)CNC2c1ccc2c(c1)OCO2 (configuration not stated)	-10%	1.7%	-6%	0.0%	1.6	19%	-4.6
CCOC(=O)c1nc2ccccc2c(=O)n1-c1ccc(C)cc1	14%	-1.6%	2%	-1.3%	1.0	10%	-3.0
O=[N+]([O-])NC1=NCCN1Cc1ccc(Cl)nc1	-5%&28%	1.1%	4%	0.1%	?	·	-5.2
c1cc2c(cc1[C@H]1OC[C@H]3[C@@H]1CO[C@H]3c1ccc3c(c1)OCO3)OCO2	·	3.2%	-15%	5.0%	·	·	1.0
C=Cc1cc(OC)c2c(c1)c(=O)oc1c2cc(OC)c2c(O)ccc(C3OC(C)C(O)C(C)(O)C3O)c21 (configuration not stated)	·	-4.3%	-19%	-7.0%	·	-14%	1.5
O=[N+]([O-])c1[nH]cnc1Br	·	·	-1%	0.1%	·	-5%	-2.5
CN(c1ccc(OCC(=O)N2CCN(C/C=C/c3ccccc3)CC2)cc1)S(=O)(=O)c1cccs1	-4%	1.0%	-21%	-0.4%	3.3	-51%[inhibitor]	9.8
COc1cccc(O)c1CN1CCCC(C(=O)c2ccccc2SC)C1 (configuration not stated)	-9%	-1.9%	-2%	-0.3%	-1.5	16%[15.4 µM]	-4.3
CC/C(=N\NC(=O)c1ccccc1O)c1c(O)n(Cc2ccccc2)c(=O)[nH]c1=O	7%	-21%	-17%	2.3%	?	-18%	-11
CCN(CCCl)c1cc(CN(C)C)cc(NC(=O)c2ccc(C(=O)Nc3cc(CN(C)C)cc(N(CC)CCCl)c3)cc2)c1	·	-4.2%	5%	-1.1%	·	6%	-2.2
Cc1cccc(-n2c(O)c(C=NCCN3CCCCC3)c(=O)[nH]c2=O)c1	15%	·	6%	-1.1%	5.3	-21%[15.4 µM]	-0.8
C#CCN1CCN(c2cccc(C(F)(F)F)c2)CC1	-12%	·	17%	3.3%	2.3	-3%[15.4 µM]	0.8

High-throughput results: PubChem, National Center for Advancing Translational Sciences (NCATS)

Some of the compounds tested; the hit share may differ from the screen's.
